Bioassay records from PubChem BioAssay.
LANA-H2B inh: blocks KSHV LANA binding to histone H2A/H2B; inhibition, % (concentration not given with the values); 0.6% of 320,000 active; cell-free LANA-H2A/H2B peptide, fluorescence polarization; Q9QR71; AID 2629; in the data active means inhibition mostly above about 10%, no sharp cut-off; inactive means mostly below about 6.7%;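 further: stock transfer was 7.5 nL into about 10 µL; 0% = median of vehicle wells and 100% = median of positive control wells; one replicate is shown; the record names a cut of 25% in any replicate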
Target sequence (Q9QR71 whole entry, looked up): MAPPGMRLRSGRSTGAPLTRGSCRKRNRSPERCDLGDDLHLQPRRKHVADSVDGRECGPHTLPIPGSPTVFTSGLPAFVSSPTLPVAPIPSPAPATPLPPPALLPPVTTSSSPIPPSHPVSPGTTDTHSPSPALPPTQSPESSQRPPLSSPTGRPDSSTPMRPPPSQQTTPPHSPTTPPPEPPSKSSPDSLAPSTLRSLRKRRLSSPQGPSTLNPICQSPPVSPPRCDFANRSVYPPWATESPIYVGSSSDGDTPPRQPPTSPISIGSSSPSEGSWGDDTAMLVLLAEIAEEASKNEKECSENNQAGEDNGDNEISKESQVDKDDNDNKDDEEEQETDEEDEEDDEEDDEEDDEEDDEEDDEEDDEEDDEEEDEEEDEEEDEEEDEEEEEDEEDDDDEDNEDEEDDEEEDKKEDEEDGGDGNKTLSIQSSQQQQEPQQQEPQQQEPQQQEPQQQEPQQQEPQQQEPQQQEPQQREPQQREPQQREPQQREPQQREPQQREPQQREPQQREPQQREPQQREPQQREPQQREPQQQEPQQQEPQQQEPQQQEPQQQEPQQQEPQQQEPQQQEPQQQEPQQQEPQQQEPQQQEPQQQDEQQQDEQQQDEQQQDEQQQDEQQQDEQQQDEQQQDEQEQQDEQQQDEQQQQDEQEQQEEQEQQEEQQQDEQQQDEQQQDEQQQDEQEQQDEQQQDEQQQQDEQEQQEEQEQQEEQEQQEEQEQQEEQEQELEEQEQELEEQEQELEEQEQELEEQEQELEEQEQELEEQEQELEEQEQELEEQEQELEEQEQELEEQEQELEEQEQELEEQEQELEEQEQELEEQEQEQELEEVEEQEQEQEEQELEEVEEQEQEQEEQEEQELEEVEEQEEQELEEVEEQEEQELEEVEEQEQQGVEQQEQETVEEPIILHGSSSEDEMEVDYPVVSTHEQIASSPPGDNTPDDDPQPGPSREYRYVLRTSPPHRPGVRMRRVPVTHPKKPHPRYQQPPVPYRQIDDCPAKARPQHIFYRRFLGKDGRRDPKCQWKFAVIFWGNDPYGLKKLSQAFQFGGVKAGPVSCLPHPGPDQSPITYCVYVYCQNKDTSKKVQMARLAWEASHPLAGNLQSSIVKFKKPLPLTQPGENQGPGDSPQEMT
MLL AF4-AF9 inh: MLL-AF4/AF9 protein interaction inhibition. AID 651704. P42568. AlphaScreen, biotin-AF4 peptide binding to FLAG-AF9. 0.47% of 350,000 active. inhibition, % at 10 µM;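 active means every replicate reaching a set inhibition limit, whatever the replicate mean, cut at about 25% in these data; inconclusive means mean inhibition reaches that limit but some replicates miss it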;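 further: 0% = plate neutral control median and 100% = total signal loss; the record names both 10 and 1 µM as test concentration; the first replicate is given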
Beta apoptosis: beta cell apoptosis inhibition. INS-1E cytokine-induced death, ATP luminescence, 48 h; percent of positive-control rescue, neutral wells zero. protection from apoptosis, % (no concentration beside the values). 0.8% of 300,000 active;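 active means all replicates at 75% or more, or half of them and the mean; inconclusive means half reach 75% but not the mean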;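 further: 0% = cytokine-treated negative control wells and 100% = positive control rescue; higher means more ATP so stronger rescue from cytokine killing; wells of about 40 µL received 100 nL stock; the first replicate is given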
T cruzi inh: T. cruzi replication inhibition. T. cruzi beta-gal in NIH3T3, luminescence, 90 h. inhibition, % (test concentration not listed). 1.4% of 300,000 active;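 active means mean inhibition across valid replicates above about 55%, limit read from the data; inconclusive means mean below that limit but half or more replicates reach it; inactive means mean below it, under half of replicates reach it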;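 further: signal also drops with host cell toxicity which is not excluded here; 0% = plate median of DMSO wells and 100% = zero luminescence signal; higher percent means less beta-gal luminescence so fewer parasites; stock transfer was 50 nL into about 50 µL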
Bfl-1 A1 inh: inhibitors of the anti-apoptotic protein A1, read as caspase activation | MEF A1-2A-BIM cells, Caspase-Glo 3/7 luminescence, 3 h; percent of clofoctol response, vehicle zero | caspase activation, % (no concentration beside the values) | 0.066% of 330,000 active;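 active means over half of replicate activation scores above 10%, or exactly half above 10 with the replicate mean above 10; inconclusive means replicate mean below 10 yet half the replicates above 10; inactive means over half of replicates below 10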;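 further: wells of about 30 µL received 50 nL stock; many hits fall short of the cut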
RanGTP-Imp inh: inhibitors of RanGTP-importin-beta interaction, primary screen, biochemical, FRET, CFP-Ran, YFP-importin-beta, homogeneous. cell-free CFP-Ran/YFP-importin-beta FRET ratio. inhibition, % (test concentration not listed). 1.1% of 300,000 active. AID 2216;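 active means most replicates above 15%; inconclusive means exactly half above 15%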;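 further: 0% = DMSO wells and 100% = Ran loaded with GDP instead of GTP; wells of about 40 µL received 100 nL stock; the first replicate is given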
Calb FLC: affects C. albicans growth with fluconazole. C. albicans CaCi-2 (fluconazole-resistant clinical isolate) + fluconazole, Alamar Blue growth, 48 h. growth inhibition, % (no concentration beside the values). 0.57% of 300,000 active. AID 1979;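 active means most replicates above 75%; inconclusive means exactly half above 75%; inactive means most below 75%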;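 further: all wells also contain fluconazole at 8 µg/ml as a sub-toxic cotreatment; 0% = median of DMSO wells and 100% = median of geldanamycin control wells; wells of about 8 µL received 7.5 nL stock; the first replicate is given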
Vif TR-FRET: HIV-1 Vif–A3G interaction blockers – biochemical, TR-FRET, GST-Vif 1-94, biotin-A3G peptide, dose response retest, primary screen (AID 1117319); 0.57% of 260,000 active; TR-FRET GST-Vif / biotin-A3G peptide binding; higher % means a stronger effect; test concentration not given here; strong numbers were not always called active; inhibition, %, or IC50 in µM where a hit was titrated;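 active means above the screen mean plus three standard deviations and confirmed in dose response; inconclusive means results disagree or hit not tested in dose response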;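 further: Vif residues 1-94 fused to GST binding biotinylated APOBEC3G peptide 110-148; 0% = full assay without inhibitor and 100% = GST in place of GST-Vif; retest series ran down from 100 µM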
* hit, by the source's call; ? = inconclusive; . = no result given; & = joins results of further samples. Not a hit list (roughly 4.3% active in at least one column).

SMILES | LANA-H2B inh | MLL AF4-AF9 inh | Beta apoptosis | T cruzi inh | Bfl-1 A1 inh | RanGTP-Imp inh | Calb FLC | Vif TR-FRET
COc1cc(/C=C2\SC(=S)N(NC(=O)c3ccncc3)C2=O)ccc1O | -7.0 | 1.3 | 6 | 8 | -0.1 | -13 | -2 | -6%
O=C(CCl)N1CCN(S(=O)(=O)Cc2ccccc2)CC1 | -1.2 | 1.7 | -9 | . | 0.6 | . | . | 10%
C=CCn1c(Cc2cccs2)nnc1SCC(=O)NC1CC1 | 2.1 | -3.0 | . | -11 | 0.8 | ? | 3 | .
CCCCn1nc(CC(=O)O)c2ccccc2c1=O | -0.1 | . | -4 | -11 | 1.0 | ? | -7 | 13%
COc1nc(C#N)c(N2CCOCC2)o1 | 1.7 | . | -12 | -18 | -2.2 | 2.1 | 1 | -3%
Cc1ccc(OCCNC(=O)c2cc(C3CC3)nc3c2cnn3C(C)C)cc1 | 1.6 | 1.7 | 6 | . | -0.6 | . | . | -8%
CCCCCCOc1ccc(OCC(O)CN2C(=O)NC(C)(C)C2=O)cc1 (stereo not drawn) | 12 | -25 | 0 | -5 | -0.9 | 2.7 | 7 | ?
COc1cc(SC)ccc1C(=O)OCc1nc2ccsc2c(=O)[nH]1 | -6.1 | -10.0 | -2 | -2 | -0.8 | . | -1 | .
COc1ccc(CC(=O)NNC(=O)c2ccccn2)cc1 | -5.3 | -6.7 | . | -1 | 0.6 | 1.1 | -1 | .
CCOc1ccc(NC(=O)c2ccc(Cl)c(NC(=O)c3ccco3)c2)cc1 | 0.3 | -6.0 | -2 | 7 | 0.3 | -0.1 | -1 | .
CC(CCC(=O)O)C1CCC2C3C(O)CC4CC(O)CCC4(C)C3CC(O)C12C (stereo not drawn) | 4.5 | 0.2&-2.8 | -5 | -7 | 0.8 | -1.7 | . | .
COc1ccc(S(=O)(=O)N(C)c2ccc(C(=O)N3CCN(C)CC3)cc2)cc1 | 3.5 | -1.2 | -9 | 8 | -0.6 | -0.2 | 3 | .
O=C(COC(=O)CCN1C(=O)/C(=C\C=C\c2ccccc2)SC1=S)Nc1ccc(Br)cc1 | -1.6 | -0.7 | -2 | 8 | -3.8 | -1.3 | -9 | 13%
Cn1c(=O)c2c(nc(-n3ccnc3)n2Cc2ccc(Cl)cc2Cl)n(C)c1=O | 0.7 | . | 3 | 53 | 0.4 | -0.5 | 0 | 21%
O=C(COC(=O)c1cc(S(=O)(=O)N2CCOCC2)c(Cl)cc1Cl)Nc1ncc(C(F)(F)F)cc1Cl | -0.4 | . | -4 | . | 0.1 | . | . | 8%
COc1ccc(C2C3=C(CC(C)(C)CC3=O)Nc3c2c(=O)[nH]c(=O)n3Cc2ccccc2)cc1OC (stereo not drawn) | 12 | . | . | 0 | -0.7 | 88* | -10 | -42%
Cc1ccc(CNC(=O)COC(=O)c2ccc(Br)o2)cc1 | 0.7 | -0.5 | 3 | . | -0.6 | . | . | .
CCCCN(C)C(=O)CSc1nc(NCc2ccc(OC)cc2)c2ccccc2n1 | 0.8 | . | -1 | 32 | 0.9 | 3.3 | -3 | 1%
CC(C)CNS(=O)(=O)c1ccc(CCC(=O)NCc2ccncc2)cc1 | 0.6 | -1.3 | 3 | 5 | -0.2 | 2.9 | 14 | ?
COc1ccc(NC(C(=O)Nc2cccc(C(C)=O)c2)c2ccccc2)cc1 (stereo not drawn) | -0.3 | . | 1 | 16 | -0.4 | -0.3 | 6 | 29%
CCOC(=O)c1[nH]c(C)c(C(=O)OCC(=O)N(Cc2ccccc2)C(C)C)c1C | . | 4.7 | -7 | . | 0.3 | . | . | 0%
COC(=O)c1cc(OC)ccc1-c1ccc(OC)cc1 | -5.3 | -1.3 | -3 | -31 | 0.6 | -1.0 | -11 | 1%
CCC(C)[C@H](NC(=O)C1CC(=O)N(c2ccc3c(c2)OCCO3)C1)C(=O)N1CCCCC1 (stereo partly drawn) | 1.2 | -2.4 | -2 | -12 | 0.0 | -3.3 | 3 | .
CN(CCCC(=O)Nc1ccc(OC(F)F)cc1)S(=O)(=O)c1ccc(F)cc1 | -3.4 | -0.5 | 3 | 29 | 0.6 | 7.5 | 1 | -1%
COc1cc(C(=O)Oc2c(CN3CCOCC3)cc(Cl)c3cccnc23)cc(OC)c1OC | -0.3 | . | 93* | 30 | 1.4 | 16* | 94* | 15%
SMILES | LANA-H2B inh | MLL AF4-AF9 inh | Beta apoptosis | T cruzi inh | Bfl-1 A1 inh | RanGTP-Imp inh | Calb FLC | Vif TR-FRET
O=C(Nc1ccccc1C(=O)N1CCOCC1)c1ccncc1 | 2.4 | . | . | 8 | -0.1 | -2.4 | -2 | 0%
Oc1ccc(Br)cc1-c1ccnn1-c1ccccc1 | -1.9 | -4.7 | 5 | -6 | 0.2 | -0.5 | -11 | .
COc1ccccc1NC(=O)CNC(=O)c1ccc(F)cc1 | 0.1 | . | -5 | 22 | 0.0 | -5.3 | ? | 8%
COc1ccc(C(C)(C)C)cc1NC(=O)COC(=O)C1=NNC(=O)CC1 | . | 0.2 | -2 | . | 0.0 | . | . | -12%
Cc1ccc(C)c(-n2c(SCC(N)=O)nnc2-c2ccccn2)c1 | -6.6 | . | -7 | -6 | -1.8 | 0.6 | 3 | 68%
CC(=O)N1CCN(C(=O)c2ccc3c(c2)S(=O)(=O)c2ccccc2C3=O)CC1 | -9.6 | -0.9 | . | -11 | 1.4 | -1.7 | 16 | -4%
Cc1cc(/C=C2\SC(=O)N(C)C2=O)c(C)n1-c1ccc(S(N)(=O)=O)cc1 | -0.8 | 2.8 | -6 | 6 | 0.1 | -3.3 | 3 | -6%
COc1cccc(C2C3(C#N)C(N)=NC(OC)(OC)C23C#N)c1 (stereo not drawn) | -1.5 | . | 1 | -8 | 0.0 | -3.2 | -7 | -3%
CCOc1cc(C=O)ccc1OCC(N)=O | -2.8 | -1.3 | -10 | -6 | -0.8 | -2.0 | -6 | 6%
O=C(Nc1ccc([N+](=O)[O-])cc1)N1CCCCCC1 | 1.0 | 1.0 | 2 | -2 | -0.5 | 3.5 | 0 | .
CCOC(=O)C1=C(N)N(c2ccc(N3CCCCC3)cc2)C(=O)C1 | 3.5 | . | -2 | 3 | -0.3 | -1.7 | 1 | 12%
Cc1ccc2[nH]c(C)c(CC(=O)O)c2c1 | 1.0 | . | 3 | 5 | -0.2 | -0.4 | 0 | 13%
CCOc1cccc(-c2nn3c(-c4ccccn4)nnc3s2)c1 | -2.2 | . | 3 | 4 | 0.5 | 1.8 | 6 | 13%
CCN(CC)CCNC(=O)c1cn(CC)c2ccc(S(=O)(=O)N(C)C3CCCCC3)cc2c1=O | -0.2 | 1.5 | 5 | 16 | 0.6 | 1.1 | 2 | .
CC(C)(C)NS(=O)(=O)c1ccc(C(=O)Nc2ccc3c(c2)OCO3)cc1 | 5.3 | 0.4 | 1 | 2 | -0.5 | 1.2 | -18 | -4%
CC(NC(=O)c1ccccc1)C(=O)OCn1nnc2ccccc2c1=O (stereo not drawn) | -2.6 | -0.5 | -5 | . | -1.2 | . | . | 8%
CCOC(=O)N1CCC(NC(=O)CS(=O)Cc2nc(-c3ccc(Cl)cc3)oc2C)CC1 (stereo not drawn) | 5.4 | 0.3 | -5 | 2 | -0.9 | 8.4 | 3 | 8%
COc1ccc(CNC(=O)CN(C(=O)CCC(=O)Nc2ccccn2)c2ccc(C)cc2)cc1 | 3.6 | 3.7 | -8 | 12 | 0.8 | 3.0 | 5 | 8%
CC(NCc1ccccc1OC1CCCC1)c1ccccc1 (stereo not drawn) | 1.1 | 1.6 | 18 | 24 | -0.2 | 4.8 | -8 | -7%
COc1ccc(C)cc1NC(=O)C1CCCN1S(=O)(=O)c1ccc2c(c1)CCC(=O)N2 (stereo not drawn) | -4.1 | 13 | 5 | . | -0.1 | . | . | ?
O=C(OCC1CCNCC1)c1ccc2c(c1)OCO2 | 12 | -2.8 | -5 | 5 | ? | -4.9 | 7 | .
OC(COc1ccc2c(c1)OCO2)CN1CCN(c2ccccc2)CC1 (stereo not drawn) | -0.3 | -0.3 | 0 | 6 | -0.3 | 1.5 | -23 | 0%
O=C(Cc1ccc(F)cc1)N/N=C/c1ccc2c(c1)OCO2 | 3.0 | -0.5 | -1 | -1 | -0.9 | 0.1 | -4 | 0%
COc1ccccc1NC(=O)NC1CCCc2ccccc21 (stereo not drawn) | 4.7 | -3.2 | 2 | -1 | -0.6 | -1.2 | 8 | -9%
CC(C)CCn1c(-c2nonc2N)nc2ccccc21 | 4.0 | . | -1 | -12 | 1.2 | -4.2 | -3 | -7%
SMILES | LANA-H2B inh | MLL AF4-AF9 inh | Beta apoptosis | T cruzi inh | Bfl-1 A1 inh | RanGTP-Imp inh | Calb FLC | Vif TR-FRET
Cn1c(SCc2ccc(F)cc2)nnc1-c1cccs1 | 0.2 | -1.3 | 3 | 11 | -0.1 | -1.9 | 0 | 1%
COc1ccc(NC(=O)COC(=O)CNS(=O)(=O)/C=C/c2ccccc2)cc1OC | 1.3 | 3.5 | -6 | . | -1.9 | . | . | -2%
Cc1cccc(NC(=O)C2CCN(S(=O)(=O)c3cccs3)CC2)n1 | 2.1 | . | -19 | -14 | 0.5 | 2.0 | -11 | -5%
COc1ccc(OC)c2[nH]c(=O)c(CCNC(=O)c3ccc4c(c3)OCO4)cc12 | -5.3 | -1.5 | 7 | -6 | 0.6 | -0.3 | 7 | 1%
CC(=O)C(=Cc1ccc(C(=O)O)cc1)C(C)=O | -3.1 | 0.5 | . | 4 | 0.8 | ? | -14 | -2%
CC1=C(C(N)=O)C(c2ccccc2F)n2nc(CCCO)nc2N1 (stereo not drawn) | -1.3 | . | . | -9 | 1.0 | 3.7 | 5 | 4%
CCCCCOC(=O)C1=C(C)NC(=O)NC1c1ccc(N(C)C)cc1 (stereo not drawn) | -1.0 | -0.6 | -3 | -4 | 0.4 | 0.8 | -3 | -1%
CCS(=O)(=O)c1ccc(C(=O)NC2CC2)c(Cl)c1Cl | 2.0 | -0.2 | 6 | 7 | 0.7 | -2.8 | -4 | .
Cc1cccc(C2c3[nH]c4ccccc4c3CCN2C(=O)Cc2nc(-c3ccccc3)n[nH]2)n1 (stereo not drawn) | -3.2 | 5.6 | -3 | 2 | 0.1 | 2.7 | 40 | .
c1ccc(CN2C3=NCCCN3c3ccccc32)cc1 | -1.4 | . | . | 0 | 0.2 | -3.9 | -8 | ?
CC(C)C(=O)Nc1cccc(NC(=S)NC(=O)C(c2ccccc2)c2ccccc2)c1 | 0.6 | . | 2 | -10 | 0.6 | 3.8 | 50 | 0%
Cc1ccsc1C(=O)OCC(=O)N1CCN(C(=O)c2ccco2)CC1 | 1.3 | -14 | -1 | -5 | -0.1 | 0.7 | 1 | 0%
COc1cccc(C2=NOC(C(=O)NCc3ccccc3)C2)c1 (stereo not drawn) | 0.8 | . | 0 | -41 | -0.4 | 4.2 | -13 | -2%
O=C1CCCC(=O)N1c1ccc(N2CCN(c3ccccc3)CC2)c([N+](=O)[O-])c1 | 2.0 | . | 2 | -3 | 0.2 | -1.2 | -3 | 1%
CC(C)(C)Nc1nc(C(N)=O)nc(N2CCOCC2)n1 | 1.8 | . | -3 | -2 | 0.2 | -1.8 | 8 | 0%
COc1cc(/C=N/NC(=O)COc2ccc(C)cc2)ccc1OC(=O)c1cccs1 | -5.3 | -0.7 | 1 | -2 | -0.6 | -0.5 | 13 | .
COCc1cc(=O)[nH]c2cc(NC(=O)C3CC3)c(C)cc12 | 4.9 | . | -3 | -2 | -0.5 | 5.4 | 5 | -12%
